Bioassay records from PubChem BioAssay.
Ba CapD inh – inhibitors of Bacillus anthracis CapD enzyme | purified CapD enzyme, fluorescence intensity read-out; active compounds read low; some hits fall short of the stated cut | z-score (no concentration beside the values) | actives 0.23% (n = 140,000);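 active = z-score under -4 in either of two replicates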;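 also: stock transfer was 100 nL into about 40 µL; score is relative to mean and spread of the plate; one replicate is shown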
AID504770 – growth inhibitors of E. coli YBA685 in a screen for V. cholerae RctB (chromosome II replication) inhibitors | E. coli YBA685 rctB-dependent plasmid, OD600 growth, 3 h; active compounds read low | z-score (test concentration not listed) | actives 0.27% (n = 130,000);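 active = z-score under -2 on both plates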;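 also: wells of about 30 µL received 100 nL stock; score is relative to mean and SD of the test wells; the first replicate is given; strong numbers were not always called active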
* = called active by the depositor; . = not tested or not shown.

Fields – AID504770 | Ba CapD inh
CCN(CC(=O)NC1CCS(=O)(=O)C1)C(=O)/C=C/c1cccs1 (stereo not given)
 : -0.9 | .
C=CCn1c(=O)[nH]c2c1c(=O)n(C)c(=O)n2C
 : -0.7 | .
N=C1CC(=O)N=C2SC(C3CC3)=NN12
 : 1.8 | 0.39
COc1ccc(C(=O)O/N=C2\C(=O)N(C)c3ccccc32)cc1
 : -0.4 | -0.1
O=c1ccc(Oc2nc(N3CCCCC3)nc(N3CCCCC3)n2)n[nH]1
 : 2.1 | 0.25
NS(=O)(=O)c1ccc(N=Cc2c(O)ccc3ccccc23)cc1
 : -0.45 | -1.2
C=CCn1c(SCC(=O)N2CCOCC2)nc2sc(-c3ccccc3)cc2c1=O
 : . | -0.15
O=C(COc1c(-c2ccco2)oc2ccccc2c1=O)NCCc1ccccc1
 : 0.9 | .
N#CC1=C(SCc2ccccc2)SC(CO)NC1=O (stereo not given)
 : 0.5 | -0.97
CN(C)c1c(F)cc(C(=O)NC(=O)NC2=NCCS2)cc1F
 : 0.2 | -0.08
COc1ccc(-c2nc3n(n2)C(=O)CC(c2ccco2)S3)cc1 (stereo not given)
 : 1.2 | -0.15
O=C1S/C(=C/c2ccc(F)cc2)C(=O)N1CNc1ccc(Br)cc1
 : . | -1.3
O=C(CCCN1C(=O)CSc2ncccc21)NCCc1ccccc1
 : -0.5 | 0.81
NC(=O)CSc1nc2ccccc2c(=O)n1Cc1ccccc1
 : 1.5 | 3.7
O=C(CCCC(=O)Nc1cccnc1)Nc1cccnc1
 : 2 | 0.38
O=C(NCCOc1ccc2c(c1)OCO2)C1CCN(C(=O)NC2CCCCC2)CC1
 : -0.15 | 0.025
COc1cc2c(cc1OC)C(C(=O)NC(C)C)C1CCCCN1C2=O (stereo not given)
 : -0.15 | 0.76
Fc1ccc(-n2ncc3c(N4CCc5ccccc54)ncnc32)cc1
 : -1.6 | 3.5
Cc1ccc(-c2noc(CN(C(=O)Nc3ccccc3C)C(C)C)n2)cc1
 : -0.1 | 0.32
COc1cc(C2C(C#N)=C(N)Oc3n[nH]c(-c4cccc([N+](=O)[O-])c4)c32)cc(OC)c1O (stereo not given)
 : . | 0.03
Cn1c(C(C(=O)NCC2CCCO2)N(C(=O)Cn2nnc3ccccc32)c2ccc3c(c2)OCO3)nc2ccccc21 (stereo not given)
 : -0.15 | .
CC(=O)OCC1OC(n2c(Br)nc3c(N)ncnc32)C(OC(C)=O)C1OC(C)=O (stereo not given)
 : -0.35 | .
C=CCn1c(C(C)O)nc2ccccc21 (stereo not given)
 : -1.1 | .
COc1cccc(N=c2scc(-c3ccco3)n2CC2CCCO2)c1 (stereo not given)
 : -0.5 | .
O=C(C1c2ccccc2Oc2ccccc21)N1CCC2(CC1)OCCO2
 : -0.8 | 0.23
CC1(C(=O)O)CCC(C(=O)N2CCc3ccccc32)C1(C)C (stereo not given)
 : -0.1 | 0.33
COc1ccc(-c2ccc(CO)o2)cc1N
 : -1.1 | .
O=C1NC(=S)NC(=O)C1=Cc1ccc(Oc2ccc([N+](=O)[O-])cc2[N+](=O)[O-])cc1
 : . | -1.5
CN(Cc1ccccc1)C(=O)c1cccc(C(=O)N(C)Cc2ccccc2)c1
 : -0.4 | 0.04
O=C(c1c[nH]c2ccccc12)C(F)(F)F
 : -0.8 | -0.7
O=[N+]([O-])c1cccnc1Oc1ccc(F)cc1F
 : . | 0.17
CCCCCN1N=C(C)CC1=O
 : 0 | .
C=CCN(c1ccccc1)S(=O)(=O)c1ccc2c(c1)SC(C)C(=O)N2 (stereo not given)
 : -0.7 | 0.46
Cc1ccccc1NC(=O)CCC(=O)OC1CCC(C(C)(C)C)CC1 (stereo not given)
 : -0.15 | 0.17
CCOC(=O)c1c(N)c(C#N)n2c1CCC2
 : 0.45 | 1.6
COc1cc(OC)cc(C(=O)Nc2ccc(O)c(-c3nc4cc(C)c(C)cc4o3)c2)c1
 : 0.75 | .
Cc1ccc(Cc2nc(-c3ccc(Cl)cc3)cs2)cc1
 : 1.8 | 0.67
COCCCNC(=S)Nc1cccc(C(F)(F)F)c1
 : . | -0.23
Cc1nc(C)c(C(=O)O)c(-c2ccc(Cl)cc2)c1C(=O)O
 : -0.8 | 0.095
CCOc1ccc2nc(SCc3nc4ccccc4[nH]3)sc2c1
 : -0.5 | -0.41
Fc1ccccc1N1CCN(c2c3c(nc4ccc(Cl)cc24)CCC3)CC1
 : -0.15 | 0.59
CCSc1ccc(SC#N)s1
 : -5.2* | .
O=C1c2[nH]nc(-c3ccccc3)c2C(c2ccc([N+](=O)[O-])cc2)N1c1cccc(C(F)(F)F)c1 (stereo not given)
 : . | -0.29
CCOC(=O)c1cc(-c2cc3ccccc3o2)nn1CCC#N
 : 1 | .
S=c1[nH]ccn1CCc1ccccc1
 : -0.3 | 0.71
CCCN(c1ccc(F)cc1)c1nc(-c2ccc(OC)cc2)no1
 : -0.35 | 0.3
CCn1c(=S)[nH]c2nc3c(cc2c1=O)COC(C)(C)C3
 : -0.6 | 3
Cc1cc2[nH]c(=O)c(=O)[nH]c2cc1S(=O)(=O)NC1CCCC1
 : -0.9 | 110
S=C1NCN(C2CCCCC2)CN1
 : 0.3 | -0.11
CCOC(=O)c1c(CN2CCN(CC#N)CC2)n(C)c2cc(Br)c(OC)cc12
 : . | -0.41
Cc1cc(C(=O)OCC(=O)N(c2ccccc2)c2ccccc2)c2ccccc2n1
 : -0.55 | 0.15
NNC(=O)c1ccc2c(=O)n3c(nc2c1)CCCCC3
 : -0.15 | .
COc1cccc(-c2nn(C)c3sc(C(=O)N4CCN(c5ccccc5)CC4)cc23)c1
 : -0.95 | -0.11
FC(F)(F)c1nnc(Nc2cccnc2)s1
 : 0.5 | 0.22
CCOC(=O)c1c(-c2ccccc2)csc1NC(=O)CSc1nc2ccccc2o1
 : . | -0.07
O=C(NCCN1CCCC1)c1ccc(Cn2c(=S)[nH]c3ccc(Br)cc3c2=O)cc1
 : . | -0.35
COc1ccc(/C=C/C(=O)OC2CCCCC2=O)cc1 (stereo not given)
 : -0.1 | 0.68
NS(=O)(=O)c1cccc(S(N)(=O)=O)c1
 : -1.2 | .
O=C(NCc1ccc2c(c1)OCO2)NCc1ccc2c(c1)OCO2
 : -0.85 | .
C=CCn1c(SCC(=O)/C(C#N)=C(\C)N)nnc1-c1ccoc1C
 : 0.45 | .

Further results follow:
Fields – AID504770 | Ba CapD inh
Cc1sc2nc(SCC(=O)NC(C)(C)C)n(-c3ccccc3)c(=O)c2c1C
 : . | -0.77
Cc1noc(C)c1S(=O)(=O)N1CCCCC1
 : 0.45 | -0.045
O=C(CCn1c(=O)oc2cc(Cl)ccc21)n1c(=O)oc2cc(Cl)ccc21
 : -2.4 | -0.1
CCOC(=O)C1=C(O)/C(=C/c2ccc(N(C)C)cc2)SC1=Nc1cccc(Cl)c1
 : . | 0.79
N#Cc1cccc(C(F)(F)F)c1
 : 0.25 | .
O=C(NC1CCN(Cc2ccccc2)CC1)c1cccn1CCc1ccccn1
 : 0.4 | 0.43
Cc1sc(Nc2cc(Cl)cc(Cl)c2)nc1-c1ccc(-c2ccccc2F)cc1
 : . | 0.11
Clc1nccc2ccc(Br)cc12
 : 0.95 | .
Cc1c(C)c2c(c(C)c1O)CC[C@](C)(CCC[C@@H](C)CCC[C@@H](C)CCCC(C)C)O2
 : . | 1.6
CC(=O)N(Cc1ccccc1)Cc1cn(-c2ccccc2)nc1-c1cc2ccccc2o1
 : 1.2 | 55
Cc1cccc(NC(=O)CSC2=C(C#N)C(c3ccco3)C3=C(CCCC3=O)N2)c1 (stereo not given)
 : 0.45 | -0.56
CCOC(=O)c1[nH]c2ccc(F)cc2c1N
 : . | 48
COCCNC(=O)Cn1c(C(=O)OC)ccc1-c1ccco1
 : 0.9 | 2.9
Cc1ccc(NC(=O)Nc2cccs2)cc1
 : -0.95 | 11
CN(C)C(=O)N1CCC(c2nc(-c3ccc4c(c3)OCO4)no2)CC1
 : . | -0.18

Continued; it opens with the three that closed the last part.
Fields – AID504770 | Ba CapD inh
COCCNC(=O)Cn1c(C(=O)OC)ccc1-c1ccco1
 : 0.9 | 2.9
Cc1ccc(NC(=O)Nc2cccs2)cc1
 : -0.95 | 11
CN(C)C(=O)N1CCC(c2nc(-c3ccc4c(c3)OCO4)no2)CC1
 : . | -0.18
CSc1ccc(CN(CCO)Cc2ccccc2)cc1
 : 1.3 | 0.07
NS(=O)(=O)c1ccc(CCNS(=O)(=O)c2cccs2)cc1
 : . | 0.4
CCCCn1c(C2CC(=O)N(c3cc(OC)ccc3OC)C2)nc2ccccc21 (stereo not given)
 : 0.2 | 0.24
Cc1cccc(N(C)S(=O)(=O)c2c(C)nc3sccn3c2=O)c1
 : 0.05 | -2.8
CC(C)(C)c1cc(CC(=O)O)cc(C(C)(C)C)c1O
 : 1.9 | -0.29
C/C(=N\NC(=O)c1ccc(CN2CCOCC2)cc1)c1cccs1
 : -0.2 | -0.53
COc1ccc(C(=O)N(Cc2ccc3c(c2)OCO3)C2CCCC2)c(OC)c1
 : 0 | .
O=C(CN1CCN(C(=O)C2COc3ccccc3O2)CC1)Nc1ccccc1 (stereo not given)
 : -0.7 | -0.85
CSc1nc2ccc(NC(=O)CSCC(=O)Nc3ccc4ccccc4c3)cc2s1
 : . | -0.08
CCOC(=O)/C=C/c1ccc(N)cc1
 : -0.85 | 11
CC(C)N(CCC#N)S(=O)(=O)c1cccc2nsnc12
 : . | -0.42
Cc1cc(C)cc(NC(=O)CSc2ccc3nnc(-c4cccs4)n3n2)c1
 : -2.4 | 0.77
COc1c(/C=C(\NC(C)=O)C(=O)O)cccc1OC1CCCC1
 : -0.85 | -0.77
CCOC(=O)C1C2C=CC3(CN(C(C)C)C(=O)C13)O2 (stereo not given)
 : -0.3 | 82
CC(C)C(=O)NCCCc1nc2ccccc2[nH]1
 : 0.15 | 0.35
COc1ccc(C(=O)NCC2OCCc3ccccc32)cc1 (stereo not given)
 : 0.05 | 0.025
Cc1c(C)c(C)c(CNC(=S)NN)c(C)c1C
 : -1.1 | -0.33
OCc1ccccc1NC(=S)Nc1cccnc1
 : -0.5 | 1.9
Cc1ccccc1Cc1c(C)nc2c(C(=O)N3CCOCC3)cnn2c1C
 : -1.5 | 0.54
Cc1ccc(F)cc1N1C(=O)CSC1c1ccc(Cl)cc1 (stereo not given)
 : . | 0.73
Cc1ccc(NC(=O)c2ccc(F)c(S(=O)(=O)N3CCN(c4cccc(Cl)c4)CC3)c2)cc1F
 : . | -0.98
O=c1oc2ccccc2n1Cc1ccccc1
 : 0.1 | 0.14
CCOC(=O)C1CCN(C(=O)c2c(F)cccc2Cl)CC1
 : -0.85 | -0.36
O=C(O)c1ccn(Cn2cnc3ccccc32)n1
 : -0.25 | 0.58
COc1ccc(/C=C2\C=C(c3ccccc3)N(c3ccccc3Br)C2=O)cc1
 : . | -0.45
COCC(C)NC(=O)c1ccc(OC)cc1OC (stereo not given)
 : -1.1 | -0.085
N#Cc1c(N)nc(SCC(=O)c2cc3ccccc3oc2=O)c(C#N)c1-c1ccc(O)cc1
 : -0.2 | .
CCSc1nc(N)c(Br)c(=O)[nH]1
 : . | 0.73
Cc1ccc(-c2nc3ccccc3[nH]2)cc1NC(=O)C(C)C
 : -0.55 | .
Cc1ccc2c(c1)sc(=NC(=O)c1ccc(S(=O)(=O)N(C)C)cc1)n2C
 : -0.7 | 5

Rewritten as labelled records: part of the list above
> NS(=O)(=O)c1ccc(N=Cc2c(O)ccc3ccccc23)cc1
  AID504770 = -0.45	Ba CapD inh = -1.2
> C=CCn1c(SCC(=O)N2CCOCC2)nc2sc(-c3ccccc3)cc2c1=O
  AID504770 = .	Ba CapD inh = -0.15
> O=C(COc1c(-c2ccco2)oc2ccccc2c1=O)NCCc1ccccc1
  AID504770 = 0.9	Ba CapD inh = .
> N#CC1=C(SCc2ccccc2)SC(CO)NC1=O (stereo not given)
  AID504770 = 0.5	Ba CapD inh = -0.97

(next part)
Fields – AID504770 | Ba CapD inh
CC1CCN(C(=O)CSc2nnnn2C2CC2)c2ccccc2S1 (stereo not given)
 : -0.05 | .
COc1cc(OC)c(/C=N/NC(=O)Cc2c[nH]c3ccccc23)cc1Br
 : . | 0.9
CCc1ccc(NC(=O)/C(C#N)=C/c2cc(C#N)n(C)c2C)cc1
 : 1.2 | .
Cc1ccc(OC(=O)c2ccc([N+](=O)[O-])cc2)c(Br)c1
 : . | 0.65
O=C(Cc1cccs1)Nc1c2c(nn1-c1ccccc1)CSC2
 : 0.3 | .
COc1ccc(C2=CC(c3ccccc3)c3ccccc3O2)cc1OC (stereo not given)
 : -0.55 | -0.72
Cc1cc(N=Cc2c(O)n(-c3cccc(Cl)c3)c(=O)c3ccccc23)no1
 : -1.1 | .
CC(=O)Nc1cc(C(=O)N2CCCCC2)ccc1Sc1ccc(Cl)cc1
 : 0.55 | -0.27
COc1ccc(C2C(C#N)=C(N)Oc3n[nH]c(-c4ccc(Br)cc4)c32)cc1O (stereo not given)
 : . | 0.48
O=c1[nH]ncc(Cl)c1Cl
 : . | 0.24
Cc1ccc(SCc2cc(=O)n3nc(-c4ccco4)sc3n2)cc1
 : -0.45 | 1.1
Cc1ccc(-c2csc(Nc3ccccc3)[n+]2NC(=O)c2ccncc2)cc1
 : -0.35 | -0.42
FC(F)(F)c1cc(-c2noc(-c3ccc4c(c3)CCO4)n2)cc(C(F)(F)F)c1
 : -0.5 | -0.22
CCN(Cc1c(C#N)c2ccccc2n1C)c1ccccc1
 : 1.2 | 0.57
CC1(C)Nc2ccccc2-c2c1ssc2=Nc1cccc(NC(=O)c2ccccc2)c1
 : . | -0.08
NC(=O)c1c(NC(=O)COC(=O)c2ccc(Br)o2)sc2c1CCC2
 : -1.2 | .
Cn1c(C(=O)NCCN2CCN(c3ccccc3F)CC2)cc2c(=O)n(C)c3ccccc3c21
 : -0.3 | 1.7
C/S(=N\S(=O)(=O)c1ccccc1)c1ncc(Cl)cc1C(F)(F)F (stereo not given)
 : 1.8 | 0.045
Cc1nnc(SCc2ccccc2C(=O)O)n1C
 : 0.15 | 0.95
OC(C#CCN1CCCC1)(c1ccccc1)C1CCCC1 (stereo not given)
 : -0.9 | .
